LMPTP block: LMPTP (human) inhibition. P24666. recombinant LMPTP-A, OMFP fluorogenic substrate, fluorescence intensity. inhibition, % at 20 µM. 0.22% of 360,000 active. AID 651560;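 active means compounds that cut the enzyme signal by at least half of the control window in the single-dose screen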;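 further: plate controls were DMSO wells with enzyme plus substrate for no effect and substrate without enzyme for full effect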
Target sequence (P24666 whole entry, looked up): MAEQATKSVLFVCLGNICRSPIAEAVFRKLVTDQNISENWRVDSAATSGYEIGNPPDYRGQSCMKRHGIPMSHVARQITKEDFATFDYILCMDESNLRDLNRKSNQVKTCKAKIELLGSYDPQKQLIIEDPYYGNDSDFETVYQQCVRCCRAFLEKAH
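Assay system: LMPTP-A, protein tyrosine phosphatase of low molecular weight / Medium: pH 6.0 Bis-Tris buffer with DTT and Triton X-100 / Schedule: 50 min enzyme reaction at room temperature, protected from light / Measured by: endpoint fluorescence intensity from OMFP dephosphorylation / Read-out basis: % inhibition relative to no-enzyme and uninhibited control wells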
CSN deneddyl inh: CSN deneddylation inhibition | inhibition, % at 12.5 µM | Purified CSN, SCF-Nedd8-OG deneddylation, fluorescence polarization | 0.38% of 360,000 active | Q92905 | AID 651999;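 active means pattern-corrected inhibition above about 35%, with an unprinted fluorescence ratio check between 0.5 and 1.5, limit read from the data, passing the limit was not always enough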;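 further: 0% = enzyme with substrate and 100% = substrate without enzyme; some results filed as inactive read as strong as hits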
Target sequence (Q92905 whole entry, looked up, one chain of several): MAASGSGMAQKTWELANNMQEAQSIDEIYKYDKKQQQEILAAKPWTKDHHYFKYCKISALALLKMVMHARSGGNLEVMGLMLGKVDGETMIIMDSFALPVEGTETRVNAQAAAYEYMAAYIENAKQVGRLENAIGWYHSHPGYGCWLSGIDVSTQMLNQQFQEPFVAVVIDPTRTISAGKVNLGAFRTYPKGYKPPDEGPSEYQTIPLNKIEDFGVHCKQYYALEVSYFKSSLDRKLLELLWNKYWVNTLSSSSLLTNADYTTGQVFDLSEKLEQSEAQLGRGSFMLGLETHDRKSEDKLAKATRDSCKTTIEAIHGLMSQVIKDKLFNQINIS
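Assay system: HEK293T-derived human Csn5 enzyme; quantity: 0.24 nM enzyme; medium: Tris/NaCl/DTT buffer, pH 7.5; also added: substrate SCFSkp2-Nedd8OG, 10 nM; doses: 12.5 µM compound; schedule: 90 min reaction at room temperature; signal: FP; read-out: % inhibition of substrate cleavage by Csn5; benchmarks: substrate-only high control, full reaction low control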
STEP block: blocks human striatal-enriched tyrosine phosphatase | P54829 | recombinant STEP, OMFP fluorogenic substrate, fluorescence | 0.25% of 360,000 active | inhibition, % at 20 µM;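 active means inhibition at 20 µM, scaled per plate between control wells, above about 37%, limit read from the data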;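 further: 0% = DMSO with enzyme and substrate and 100% = substrate only without enzyme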
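Also added – OMFP at 25 µM · Test system – STEP tyrosine phosphatase · Technique – FITC-channel fluorescence of OMFP product · Schedule – 20 min at room temperature, dark · Evaluation – control-normalized % inhibition with plate pattern correction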
Rpn11 block: blocks the human proteasome subunit Rpn11; O00487; human 26S proteasome, Ub4-pepOG fluorescence polarization; 20S core pre-blocked with epoxomicin; calls only at 20 µM; 0.59% of 360,000 active; AID 588493;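 active means inhibition at 20 µM, scaled to each plate's controls, above about 33%, limit read from the data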
SUMO1 PPI mod: modulators of human SUMO1-mediated protein-protein interactions; SUMO1 binding to a labelled peptide, TR-FRET, 1 h; inhibition, % at 20 µM; 0.33% of 360,000 active; AID 602429; in the data active means inhibition above about 37%
* marks the source's active call; other numbers are inactive results; i = inactive; & = joins results of further samples.

1	Cc1nn(CC(=O)O)c(C)c1Cl
2	O=C1NC[C@H](c2ccccc2)OC(=O)[C@H](Cc2ccc(F)cc2)CC/C=C/C[C@H]1CC(=O)N(CCO)Cc1ccccc1
3	O=C(c1ccc(NS(=O)(=O)c2ccccc2)cc1)N1CCN(c2ccccc2)CC1
4	CC(=O)OCC1=C(C(=O)O)N2C(=O)[C@@H](NC(=O)CSc3ccncc3)[C@H]2SC1
5	O=C(O)COCCN1CCN([C@H](c2ccccc2)c2ccc(Cl)cc2)CC1
6	Cc1nc(-c2ccccc2)c(-c2ccccc2)[nH]1
7	Cc1nc2ccc(S(=O)(=O)NCC(=O)NCCN3CCCCCC3)cc2s1
8	CC(C)(C)CC(C)(C)c1ccc(OCCOCC[N+](C)(C)Cc2ccccc2)cc1

compound no. | 1 | 2 | 3 | 4 | 5 | 6 | 7 | 8
LMPTP block | -1.8 | 1.2 | -0.9 | 2.1 | -1.7 | 4.7 | 11.8 | -3.5
CSN deneddyl inh | -3.0 | -2.2 | -2.6 | 6.4 | -6.2 | -4.3 | 1.1 | 0.3
STEP block | -1.9 | -0.1 | -2.0 | 4.3 | -2.8 | -2.2 | 5.2 | 6.5
Rpn11 block | i | i | i | i | i | i | i | i
SUMO1 PPI mod | 4.0 | 4.1 | 1.4 | 15.0 | 3.5 | -3.9 | 46.2* | -110.9

In another format: results already given
2: O=C1NC[C@H](c2ccccc2)OC(=O)[C@H](Cc2ccc(F)cc2)CC/C=C/C[C@H]1CC(=O)N(CCO)Cc1ccccc1
  LMPTP block: 1.2	CSN deneddyl inh: -2.2	STEP block: -0.1	Rpn11 block: i	SUMO1 PPI mod: 4.1
1: Cc1nn(CC(=O)O)c(C)c1Cl
  LMPTP block: -1.8	CSN deneddyl inh: -3.0	STEP block: -1.9	Rpn11 block: i	SUMO1 PPI mod: 4.0

Other results follow:
9	O=C(O)c1cc(NS(=O)(=O)c2cccc3ccccc23)ccc1O
10	CC(=O)Nc1cccc(-c2nnc(-c3ccc(C)cc3)o2)c1
11	COc1c(N2C[C@@H]3CCCN[C@@H]3C2)c(F)cc2c(=O)c(C(=O)O)cn(C3CC3)c12
12	CN1C2CCC1CC(OC(=O)C(CO)c1ccccc1)C2 (stereo not drawn)
13	COc1ccc(C2CC(c3ccccc3)=NN2C(=O)CCCC(=O)O)cc1 (stereo not drawn)
14	CCN(CC)CCCC(C)n1c2nc(=O)[nH]c(=O)c-2nc2cc(Cl)ccc21 (stereo not drawn)
15	CCOc1ccccc1C1NC(=O)c2ccccc2N1 (stereo not drawn)
16	O=C(O)CCNC(=O)c1ccccc1

compound no. | 9 | 10 | 11 | 12 | 13 | 14 | 15 | 16
LMPTP block | -2.0 | -0.3 | 1.7 | -1.3 | -3.2 | -8.3 | -1.2 | -1.6
CSN deneddyl inh | 0.6 | 2.8 | 2.7 | -1.8 | -2.2 | -74.3 | -1.0 | -2.3
STEP block | -0.7 | 2.5 | 0.6 | 4.9 | -1.6 | -160.8 | 2.5 | -3.2
Rpn11 block | i | i | i | i | i | i | i | i
SUMO1 PPI mod | -5.3 | -9.1 | 5.4 | 1.9 | -3.4 | -53.7 | 12.3 | 2.7

Whole records, quoted from the list. Values in the order: LMPTP block, CSN deneddyl inh, STEP block, Rpn11 block, SUMO1 PPI mod
O=C1NC[C@H](c2ccccc2)OC(=O)[C@H](Cc2ccc(F)cc2)CC/C=C/C[C@H]1CC(=O)N(CCO)Cc1ccccc1 in the list: 1.2, -2.2, -0.1, i, 4.1
O=C(O)COCCN1CCN([C@H](c2ccccc2)c2ccc(Cl)cc2)CC1 in the list: -1.7, -6.2, -2.8, i, 3.5
Cc1nc(-c2ccccc2)c(-c2ccccc2)[nH]1 in the list: 4.7, -4.3, -2.2, i, -3.9
CN1C2CCC1CC(OC(=O)C(CO)c1ccccc1)C2 (stereo not drawn) in the list: -1.3, -1.8, 4.9, i, 1.9

Carrying on:
17	CCN(CC(=O)Nc1c(F)cccc1F)C(=O)c1cccc(-n2cccc2)c1
18	CN1C2CC(OC(=O)C(CO)c3ccccc3)CC1C1OC12 (stereo not drawn)
19	CCN(CC)CCn1nc2c3c(cccc3c1=O)-c1ccccc1-2
20	CC(C)(C(=O)O)c1ccc(C(O)CCCN2CCC(C(O)(c3ccccc3)c3ccccc3)CC2)cc1 (stereo not drawn)

compound no. | 17 | 18 | 19 | 20
LMPTP block | 7.2 | -1.7&-0.6&0.3 | 0.3 | -0.5
CSN deneddyl inh | 22.6 | 5.3&-0.9&1.3 | 4.7 | 0.4
STEP block | 8.8 | 1.7&-0.1&-2.9 | -1.5 | -1.5
Rpn11 block | i | i | i | i
SUMO1 PPI mod | 22.8 | 1.3&3.4&2.7 | -19.3 | -0.6

The list is partial. The share of hits here may be higher or lower than overall.
